Screening data deposited in PubChem by Sanford-Burnham Center for Chemical Genomics.
SENP7 block: SENP7 protease inhibitors, primary screen, biochemical, luminescence, uHTS | Sentrin-specific protease 7 (Homo sapiens), Q9BQF6 | recombinant SENP7, Z-RLRGG-aminoluciferin luminescence, 40 min | inhibition, % at 5 µM | 330,000 tested, 1.5% active | AID 434973, 2010;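 active = inhibition above about 50% at the single test dose, limit read from the data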;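 also: plate controls were DMSO with enzyme for no effect and no enzyme buffer wells for full effect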
Jurkat NFkB inh: inhibitors of induced NF-kB luciferase reporter, primary screen, TCR NF-kB activation inhibitor project, cell-based, luminescence, uHTS; Jurkat, PMA/ionomycin-induced NF-kB luciferase reporter; inhibition, % at 4 µM; 330,000 tested, 0.53% active; AID 435003, 2010
Gli-Sufu antag: Gli-Sufu pathway antagonists, primary screen, luciferase luminescence, Sufu-KO-LIGHT cells, uHTS; 340,000 tested, 0.74% active; Sufu-KO-LIGHT fibroblasts, Gli luciferase reporter luminescence; AID 588413, 2011; inhibition, % at 5 µM;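 active = inhibition above about 55%, limit read from the data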;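 also: 0% = DMSO-treated cells and 100% = wells with medium but no cells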
UBC13 polyUb: UBC13 polyubiquitin chain formation inhibitors, primary screen, biochemical, TR-FRET, uHTS; Ubiquitin-conjugating enzyme E2 N (Homo sapiens), P61088; 330,000 tested, 0.47% active; inhibition, % at 20 µM; in the data active = inhibition above about 45%, passing the limit was not always enough; inconclusive = no clear call, values can overlap the other calls
HKDC1 inhibitor: HKDC1 hexokinase inhibitors, primary screen, biochemical, fluorescence, uHTS | recombinant HKDC1, G6PDH/diaphorase resazurin coupled fluorescence | 340,000 tested, 0.16% active | AID 493160, 2011 | Q2TB90 | inhibition, % at 20 µM;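 active = inhibition above about 35% when tested at 20 µM, limit read from the data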;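 also: plate controls were DMSO wells with enzyme for no effect and DMSO wells lacking enzyme for full effect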
Target sequence (Q2TB90 whole entry, looked up): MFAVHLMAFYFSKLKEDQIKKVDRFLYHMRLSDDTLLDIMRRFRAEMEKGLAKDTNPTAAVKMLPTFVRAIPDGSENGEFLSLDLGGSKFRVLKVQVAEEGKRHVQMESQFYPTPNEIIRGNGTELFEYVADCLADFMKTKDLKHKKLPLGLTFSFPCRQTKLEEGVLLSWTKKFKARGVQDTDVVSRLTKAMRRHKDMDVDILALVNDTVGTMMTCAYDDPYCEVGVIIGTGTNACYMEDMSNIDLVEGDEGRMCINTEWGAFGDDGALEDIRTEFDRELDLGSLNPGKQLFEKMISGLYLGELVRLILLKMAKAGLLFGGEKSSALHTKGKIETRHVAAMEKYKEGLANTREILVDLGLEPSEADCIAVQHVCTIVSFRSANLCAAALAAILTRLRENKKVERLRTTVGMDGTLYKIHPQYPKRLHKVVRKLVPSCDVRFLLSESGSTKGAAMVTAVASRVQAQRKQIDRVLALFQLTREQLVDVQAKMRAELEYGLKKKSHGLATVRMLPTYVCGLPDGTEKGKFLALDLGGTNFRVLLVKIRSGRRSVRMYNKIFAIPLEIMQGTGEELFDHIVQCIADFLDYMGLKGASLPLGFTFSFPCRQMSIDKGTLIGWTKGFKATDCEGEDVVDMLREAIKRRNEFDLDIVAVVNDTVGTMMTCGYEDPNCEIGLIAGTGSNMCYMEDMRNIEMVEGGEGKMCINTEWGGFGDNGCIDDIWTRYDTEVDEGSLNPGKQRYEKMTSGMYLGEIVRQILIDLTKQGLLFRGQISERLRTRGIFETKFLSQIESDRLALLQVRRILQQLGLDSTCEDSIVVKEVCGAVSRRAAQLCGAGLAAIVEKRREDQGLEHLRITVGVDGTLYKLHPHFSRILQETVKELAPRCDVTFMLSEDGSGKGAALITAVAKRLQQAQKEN
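Test system: recombinant HKDC1 (HK5) hexokinase enzyme, produced in-house / Doses: 20 µM test compound, 1% DMSO / Timing: 90 min, room temperature / Detection: G6PDH/diaphorase-coupled fluorescence, 1 mM NADP, 100 µM resazurin, 525/613 nm / Control set: DMSO wells with and without enzyme mix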
697 NFkB inh: inhibitors of PMA/ionomycin-induced NF-kB reporter, 697 cells, primary screen, B-cell NF-kB inhibitor project, cell-based, luminescence, uHTS; AID 435022, 2010; 330,000 tested, 0.33% active; inhibition, % at 4 µM; 697 B-cell NF-kB luciferase reporter, 16 h; in the data active = inhibition above about 35%
SENP8 block: SENP8 protease inhibitors, primary screen, biochemical, luminescence; AID 2540, 2010; inhibition, % at 10 µM; purified SENP8, Z-RLRGG-aminoluciferin cleavage; Sentrin-specific protease 8 (Homo sapiens), Q96LD8; 330,000 tested, 1.2% active
* marks the source's active call; other numbers are inactive results; u = inconclusive; x = no result given. Rule as the data show it, unless noted: active = inhibition above about 50%; inactive = the rest.

The line under a structure holds: SENP7 block | Jurkat NFkB inh | Gli-Sufu antag | UBC13 polyUb | HKDC1 inhibitor | 697 NFkB inh | SENP8 block
Nc1c(C(=O)NCCN2CCOCC2)c2nc3ccccc3nc2n1-c1cccc(F)c1
  -1 | -3 | 8 | -14 | -3 | -5 | -1
CC(=O)Nc1nc2n(n1)C(c1ccc(Cl)cc1)C=C(C)N2 (stereo not given)
  -11 | 0 | 5 | 6 | 2 | 18 | -8
CC1=C(C(=O)N2CCOCC2)C(c2ccccc2F)C2=C(CC(C)(C)CC2=O)N1 (stereo not given)
  1 | 8 | 5 | 10 | -7 | 10 | 6
COc1ccc(-c2cc(C(F)F)n3ncc(C(=O)N4CCN5CCCC5C4)c3n2)cc1 (stereo not given)
  4 | 22 | 9 | 13 | 4 | 22 | 0
COc1ccc2nc(NC(=O)c3ccc(Br)s3)sc2c1
  6 | -122 | -77 | 23 | 4 | -238 | -28
O=c1oc2ccc3ccccc3c2cc1-c1nnc(-c2ccccc2)o1
  -3 | -13 | 0 | -3 | 9 | -17 | -3
Cc1ccc(C2C3=C(CC(C)(C)CC3=O)N(CCN3CCOCC3)C3=C2C(=O)CC(C)(C)C3)cc1
  3 | 8 | -12 | 14 | -7 | 18 | -7
CCN1C(=O)c2cccc3c(S(=O)(=O)Nc4ccccn4)ccc1c23
  0 | 3 | 34 | 5 | 7 | 58* | -1
O=C(CN1C(=O)c2cccc3cccc1c23)Nc1ccc2c(c1)OCO2
  3 | 9 | -2 | -1 | -5 | 17 | -5
COc1ccc(CCn2c(N)c(C#N)c3nc4ccccc4nc32)cc1OC
  46 | -27 | -3 | -36 | 15 | 20 | 54*
CC1(C)CC(=O)C2=C(C1)N(CCN1CCOCC1)C1=C(C(=O)CC(C)(C)C1)C2c1cccc(F)c1
  0 | -8 | -1 | 10 | -3 | -1 | -4
COc1ccc(CCNc2oc(COc3ccccc3F)nc2C#N)cc1
  -6 | -6 | -1 | -7 | 2 | -21 | -13
COCCn1c(N)c(C(=O)Nc2sc3c(c2C(=O)OC)CCCC3)c2nc3ccccc3nc21
  24 | 24 | 3 | 4 | -2 | 24 | 14
COCCOC(=O)C(C#N)c1nc2ccccc2nc1N1CCN(Cc2ccccc2)CC1 (stereo not given)
  6 | -1 | -3 | -2 | 6 | 6 | 5
O=C1Nc2ccc(S(=O)(=O)NCCC3=CCCCC3)c3cccc1c23
  6 | -27 | 11 | -4 | 12 | -48 | 2
CCOc1ccccc1C1C(C(=O)OC)=CN(C)C=C1C(=O)OC
  7 | -2 | 3 | 12 | -3 | -22 | -1
CCC(C)(C)n1nnnc1CN(Cc1cc2cc(OC)ccc2[nH]c1=O)C1CCCC1
  -2 | 10 | 8 | 1 | -9 | -4 | -3
Cc1nccn1-c1c2c(c(C#N)c3nc4ccccc4n13)CCC2
  -3 | 3 | -16 | -1 | -5 | -12 | 0
Cc1c(-c2nn(C)c(=O)c3ccccc23)oc2ccc(F)cc2c1=O
  -3 | -4 | 6 | -13 | 8 | -6 | 26
O=C(c1ccccc1)c1cc(F)c(N2CCOCC2)cc1Cl
  -4 | 2 | 4 | 35 | -2 | 17 | -6
Cc1ccc(N2C(=O)c3cccc4c(N5CCN(C)CC5)ccc(c34)C2=O)c2cccnc12
  0 | 33 | 12 | -5 | -7 | -17 | 1
CCOC(=O)C1=C(C)NC2=C(C(=O)C(C(=O)OCC)C(c3ccco3)C2)C1c1ccccn1 (stereo not given)
  3 | -9 | 5 | 5 | -1 | 16 | 8
Cc1ccc(C)c2nc(N3CCCC3)c(C#N)cc12
  5 | 1 | 4 | 11 | 0 | -17 | 4
N#Cc1c(N)n(-c2ccccc2N)c2nc3ccccc3nc12
  1 | -7 | -4 | -18 | 9 | -2 | 2
N#Cc1sc2nc(-c3ccccc3)cc(-c3ccco3)c2c1N
  37 | -7 | 27 | -17 | 23 | 10 | 93*
O=C(c1cnn2c(C(F)(F)F)cc(-c3ccco3)nc12)N1CCc2ccccc2C1
  3 | 8 | 11 | -4 | 1 | -8 | 3
C=CCn1c(=N)c(C(=O)NCCCOC)cc2c(=O)n3ccccc3nc21
  -2 | -10 | 7 | -6 | -3 | -22 | -7
N#Cc1c2c(c(=S)n(-c3ccccc3)c1N)CCCC2
  7 | 15 | -4 | -11 | 11 | 5 | 8
CC(C)(C)NC(=O)Nc1ccc2nccnc2c1
  -4 | -52 | -18 | 4 | 1 | -41 | -12
Cc1ccccc1Cn1c(CN2CCN(c3ccc(F)cc3)CC2)nc2c1c(=O)n(C)c(=O)n2C
  -1 | -1 | x | 13 | x | -62 | -3
CCN(CC)c1ccc(C2C(C(=O)Nc3ccccn3)=C(C)NC3=C2C(=O)CC(C)(C)C3)cc1 (stereo not given)
  7 | 5 | -2 | 10 | 4 | 7 | 0
O=c1c2ccccc2c(/C=N/n2cnnc2)c(O)n1-c1ccccc1
  10 | 6 | -4 | 7 | -5 | 7 | 5
CC1=C(C(=O)OCC2CCCO2)C(c2ccncc2)C2=C(CC(C)(C)CC2=O)N1 (stereo not given)
  10 | -6 | -4 | 10 | 0 | 10 | -8
CC(=O)Oc1cc2oc(=O)c3c(c2cc1Cl)CCC3
  2 | 12 | -2 | 13 | -1 | 9 | 13
CN(C)C=Nc1ccc2nn(-c3ccccc3)nc2c1
  42 | -110 | -55 | 7 | 9 | -132 | 18
O=C1Nc2ccc(S(=O)(=O)NCc3ccco3)c3cccc1c23
  1 | 8 | 2 | -23 | 22 | 29 | 7
NC(=O)c1cccc2c3c([nH]c12)CCCC3
  8 | -11 | -2 | -1 | 8 | 19 | -2
N#CC(c1nc2ccccc2nc1N1CCCC1)S(=O)(=O)c1cccs1 (stereo not given)
  2 | 14 | 6 | -19 | 2 | 21 | 6
CCC(=O)N1CCN(c2nc(-c3ccccc3)c3c(c2C#N)CCCC3)CC1
  -2 | 8 | 16 | 11 | 0 | 6 | 6
COC(=O)CCC(=O)OC1(C)C(=O)C=C2C=C(C3CC3)N(CCN3CCOCC3)C=C2C1=O (stereo not given)
  3 | 1 | 27 | -75 | 16 | 21 | 2
O=C(CN1C(=O)c2cccc3cccc1c23)N1CCN(Cc2ccc3c(c2)OCO3)CC1
  13 | 2 | 2 | 22 | 0 | -8 | -7
CCNc1ccc2c(Cl)cc(=O)oc2c1
  -7 | 2 | -5 | 6 | -6 | 18 | -10
CC(C)OCCCn1c(-c2ccco2)nc2nc3ccccc3nc21
  3 | -3 | -11 | 11 | 9 | 15 | 3
O=c1[nH]c(Nc2ccccn2)cc2ccccc12
  93* | -14 | 20 | -51 | 13 | 5 | 87*
CCCCn1c(NC(=O)CC)c(C#N)c2nc3ccccc3nc21
  9 | -2 | 6 | 15 | 4 | -6 | 10
COC(=O)CSCc1nc2ccccc2[nH]c1=O
  -2 | 13 | 38 | -4 | 5 | 14 | 4
CCOC(=O)C1CCN(S(=O)(=O)c2ccc3c4c(cccc24)C(=O)N3)CC1
  -9 | 1 | 1 | 9 | 4 | 2 | 10
CCCCN(C)Cc1c(O)ccc2c(-c3ccccc3)cc(=O)oc12
  6 | -8 | 14 | 7 | -1 | -13 | 5
Cc1cc2c(c(=O)n1CC1CCCO1)C(c1ccco1)C(C#N)=C(N)O2 (stereo not given)
  8 | 2 | 0 | 8 | 1 | 1 | -6
COc1ccc2[nH]c(=O)c(CNC3CCCCC3)cc2c1
  1 | -21 | -2 | 2 | 5 | -2 | -1
Cc1ccc2nc(N3CCC(C(=O)O)CC3)nc(-c3ccccc3)c2c1
  3 | -1 | 1 | 28 | 12 | -17 | -4
O=C(NCc1ccco1)c1cc2nc(-c3cccs3)cc(C(F)(F)F)n2n1
  -3 | -14 | 8 | -3 | 12 | -3 | -13
Cc1cccc2cc3c(NC(=O)C(C)C)nn(C)c3nc12
  3 | -14 | -2 | -6 | -8 | -6 | 5
N#Cc1cc2c(=O)n3ccccc3nc2n(Cc2cccnc2)c1=O
  -5 | -1 | 0 | 8 | -6 | 10 | -4
CCc1cc2c(CN3CCN(CC)CC3)cc(=O)oc2cc1O
  9 | -8 | 8 | 8 | 4 | -42 | 1
CCCn1nc(-c2ccccc2)c2nc3ccccc3nc21
  2 | 8 | -13 | u | -7 | 7 | -11
COc1ccc(-c2cc3nc(-c4ccccc4)cc(N4CCC5(CC4)OCCO5)n3n2)cc1
  0 | 6 | 2 | u | -4 | -13 | -12
Cc1ccc2nc3c(cc(C#N)c(=O)n3-c3nccs3)c(=O)n2c1
  -9 | -10 | 6 | 2 | 1 | -9 | -3
COC(=O)c1cc2c(s1)-c1ccccc1OC2
  6 | 8 | -2 | 6 | -2 | -23 | -14
CC1CCCCN1C(=O)c1cnn2c(C(F)(F)F)cc(-c3ccco3)nc12 (stereo not given)
  2 | 1 | 1 | -2 | -7 | 0 | 0

Compound profiles, from the list above. Order of values: SENP7 block	Jurkat NFkB inh	Gli-Sufu antag	UBC13 polyUb	HKDC1 inhibitor	697 NFkB inh	SENP8 block
CCCCN(C)Cc1c(O)ccc2c(-c3ccccc3)cc(=O)oc12 as listed: 6	-8	14	7	-1	-13	5
CCc1cc2c(CN3CCN(CC)CC3)cc(=O)oc2cc1O as listed: 9	-8	8	8	4	-42	1
CCN(CC)c1ccc(C2C(C(=O)Nc3ccccn3)=C(C)NC3=C2C(=O)CC(C)(C)C3)cc1 (stereo not given) as listed: 7	5	-2	10	4	7	0
CC(=O)Oc1cc2oc(=O)c3c(c2cc1Cl)CCC3 as listed: 2	12	-2	13	-1	9	13
CCOC(=O)C1CCN(S(=O)(=O)c2ccc3c4c(cccc24)C(=O)N3)CC1 as listed: -9	1	1	9	4	2	10

Back to the main list, starting 2 compounds before the break.
Structure	SENP7 block	Jurkat NFkB inh	Gli-Sufu antag	UBC13 polyUb	HKDC1 inhibitor	697 NFkB inh	SENP8 block
COC(=O)c1cc2c(s1)-c1ccccc1OC2	6	8	-2	6	-2	-23	-14
CC1CCCCN1C(=O)c1cnn2c(C(F)(F)F)cc(-c3ccco3)nc12 (stereo not given)	2	1	1	-2	-7	0	0
C=C(C)COc1ccc(-c2nc(N)ncc2Oc2ccc(OC)cc2)c(O)c1	-17	2	-7	10	0	9	-18
CCC(=O)Nc1nn(C)c2nc3c(C)cccc3cc12	1	-1	35	-5	7	13	6
CNC(=O)c1ccc(-c2sc3nc(N4CCOCC4)c4c(c3c2N)CCCC4)o1	35	5	17	17	4	16	5
Cc1ccc(-n2c(=O)c(C#N)cc3c(=O)n4ccccc4nc32)cc1	7	11	4	20	-3	21	0
COc1ccc(OC)c2c(N3CCN(C)CC3)cc(C(F)(F)F)nc12	-1	6	-10	-2	1	-1	7

These rows are one share of the data; count on the stated rates, not on these rows.
